GIV Gai3 FP – inhibitors of GIV peptide binding to Galpha-i3, primary screen, biochemical, fluorescence polarization, FITC-GIV GBA peptide, rat Galphai3 | Guanine nucleotide-binding protein G(i) subunit alpha-3 (Rattus norvegicus), P08753 | 90 min; hits give low values; scaled: aluminum fluoride 0%, vehicle 100% | percent of control (FP), % (test concentration not listed) | 210,000 compounds, 0.42% hits | AID 1224905, 2016;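 active = replicate mean at 85% of control or lower, very high polarization wells dropped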;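 also: wells of about 15 µL received 100 nL stock; the first replicate is given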
Target sequence (P08753 whole entry, looked up): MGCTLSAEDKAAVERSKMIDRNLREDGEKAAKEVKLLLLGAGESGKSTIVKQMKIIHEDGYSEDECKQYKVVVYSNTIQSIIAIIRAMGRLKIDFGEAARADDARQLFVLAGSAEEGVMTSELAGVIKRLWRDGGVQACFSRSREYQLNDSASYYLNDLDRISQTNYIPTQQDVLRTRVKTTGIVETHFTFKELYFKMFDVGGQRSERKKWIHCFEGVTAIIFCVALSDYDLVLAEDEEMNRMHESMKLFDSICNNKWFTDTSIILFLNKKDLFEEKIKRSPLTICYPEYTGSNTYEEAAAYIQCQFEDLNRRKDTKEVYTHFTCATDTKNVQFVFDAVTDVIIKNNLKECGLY
Sa growth 42C – S. aureus growth inhibition at 42 and 30 °C, primary screen, LtaS inhibitor project, RN4220, two temperatures | 170,000 compounds, 0.53% hits | OD600, 20 h, 42 °C; hits give low values | relative growth, % (test concentration not listed);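 active = growth at 42 °C up to 50% and 20 or more points under that at 30 °C, or under 10% at both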;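 also: 300 nL library stock went into each well; scaled to the means of positive and negative controls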
HCMV NEC inh – inhibitors of HCMV UL50-UL53 interaction, biochemical, HTRF; HCMV UL50-UL53 nuclear egress complex (human cytomegalovirus); normalized percent inhibition; inhibition, % (concentration not given with the values); 190,000 compounds, 0.15% hits;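 active = both replicates at 50% or more, plus weaker picks with an unusually low signal ratio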;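 also: stock transfer was 100 nL into about 20 µL; 0% = negative control wells and 100% = wells with untagged competitor protein; inactives centre near -12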
Sa growth 42C second temp – recorded beside Sa growth 42C, whose call it bears; relative growth, %; measured here: growth at 30 °C;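 optical density after 20 h as mean of two plates; 100% = untreated growth and lower means inhibition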
* marks the source's active call; other numbers are inactive results; · = not tested or not shown; & = joins results of further samples.

SMILES | GIV Gai3 FP | Sa growth 42C | Sa growth 42C second temp | HCMV NEC inh
Cc1ccc(NC(=O)NC(=O)CSc2nnc(C)n2C2CCCCC2)c(C)c1 | · | 90 | 88 | -31
COC(=O)c1c(C)sc(-c2c(-c3ccc4c(c3)OCCO4)[nH]c3c2c(=O)[nH]c(=O)n3C)c1O | 176 | 74 | 88 | -4
CCNCc1ccc(OCc2ccccc2)cc1 | · | 97 | 90 | -14
COc1ccccc1NC(=O)CSc1oc(-c2ccco2)nc1S(=O)(=O)c1ccc(Br)cc1 | 105 | 102 | 77 | 2
COc1cc(-c2nc3ccccc3c(=O)n2NC(=O)c2cccnc2Cl)cc(OC)c1OC | 104 | · | · | -7
COCCCNC(=O)C1CCN(C(=O)c2cc3sccc3n2Cc2ccc(Cl)cc2)CC1 | 101 | 95 | 89 | -24
Cc1cc(C)cc(C(=O)OCC(=O)c2cc(C)n(C)c2C)c1 | · | 103 | 93 | -15
COC(=O)c1nc2ccccc2nc1N1CCN(c2cccc(Cl)c2)CC1 | 94 | · | · | -3
CCOc1ccccc1NC(=O)Cn1c(=O)oc2cc(S(=O)(=O)NC3CCCC3)ccc21 | 114 | 102 | 95 | 3
N#Cc1c(Cl)cccc1Oc1ccc(-c2ccn[nH]2)cc1 | 107 | 79 | 67 | -18
COc1cccc(N(C(=O)c2ccco2)c2nc3ccccc3s2)c1 | · | 107 | 97 | -17
CCCNC(=O)N1CCc2c([nH]c3ccccc23)C1c1ccccc1F (stereo unspecified) | 104 | 117 | 96 | -31
CCOc1ncccc1C(=O)OCCN1C(=O)c2ccccc2C1=O | · | 105 | 89 | -38
CN(C)c1ccc(-c2nnc(-c3ccc(Cl)cc3)o2)cc1 | 103 | 93 | 61 | -23
CC(C)(C)C1CCC(C(=O)OCC(=O)c2ccc[nH]2)CC1 (stereo unspecified) | · | 113 | 97 | -17
Fc1ccc(CSc2nccn3nc(-c4ccc(Br)cc4)cc23)cc1 | 112 | · | · | -4
O=C(C1CCN(c2ncnc3c2nc2n3CCCCC2)CC1)N1CCN(c2ccccc2)CC1 | 102 | 107 | 90 | ·
CC(NC(=O)C1CCCN(S(=O)(=O)c2cccc3nonc23)C1)c1ccccc1 (stereo unspecified) | 116 | 90 | 85 | ·
COc1ccc(Nc2nc3nonc3nc2Nc2ccc(OC)cc2OC)c(OC)c1 | 108 | · | · | -12
Brc1ccc(CNc2ccc3c(c2)ncn3-c2ccccc2)cc1 | 106 | 112 | 70 | ·
CCOc1ccc2oc(=O)cc(CN3CCN(C(=O)c4ccc5c(c4)OCO5)CC3)c2c1 | 112 | 103 | 79 | -21
CCc1cc(S(N)(=O)=O)cc(CC)c1NC(C)=O | 97 | 103 | 85 | -10
CCOc1ccccc1C1C(C#N)=C(SCC(=O)N2CCCC2)NC2=C1C(=O)CCC2 (stereo unspecified) | · | 103 | 92 | -36
COc1cccc(OC)c1C(=O)Nc1nc2c(s1)CCc1ccccc1-2 | 98 | 103 | 96 | 0
CCOC(=O)N1CCC(NC(=O)c2ccccc2C(=O)O)CC1 | 100 | 85 | 94 | -21
CCc1ccc(NC(=O)N(C(C)C)C2CCN(C(C)=O)CC2)cc1 | 96 | 93 | 95 | -14
Cc1cc(OCC(O)Cn2c(C3CC(=O)N(C(C)(C)C)C3)nc3ccccc32)ccc1Cl (stereo unspecified) | 101 | · | · | -6
Cc1cc(C(=O)N2CCN(c3cc(Cl)ccc3C)CC2)c2c(C)nn(-c3ccccc3)c2n1 | 103 | 108 | 97 | ·
O=C(Cn1nc(N2CCN(c3ccccc3)CC2)ccc1=O)NC1CCCC1 | 106 | · | · | -42
CCn1c(SCC(=O)Nc2ccc(S(=O)(=O)N3CCCC3)cc2)nnc1-c1ccccc1 | · | 91 | 96 | -3
CCN1CCN(c2ccc(NC(=O)Cc3ccsc3)cc2)CC1 | · | 77 | 89 | -17
Cc1oc2ncnc(N3CCCCC3)c2c1C(=O)N1CCN(c2ccc(Cl)cc2)CC1 | 106 | 90 | 94 | ·
CC(C)(C)c1ccc(CN2C3=NC(=O)CN3c3ccccc32)cc1 | 101 | 94 | 102 | 0
O=C(N=S1CCN(C(=O)c2ccc(Cl)cc2)CC1)c1ccc(Cl)cc1 | 104 | 124 | 83 | -7
Cc1ccccc1-c1nc2sc(C)c(C)c2c(=O)o1 | · | 123 | 87 | -21
CCOCCOC(=O)C1=C(C)NC2=C(C(=O)CC(c3ccccc3)C2)C1c1ccc(OC)cc1OC (stereo unspecified) | 107 | · | · | -30
CCn1cc(CCCC(=O)NC(C)C)c2ccccc21 | 103 | 74 | 81 | -21
CS/C(=N\S(=O)(=O)c1cccs1)Nc1ccc(F)cc1 | · | 106 | 93 | 9
Cc1ccccc1CN1C(=O)c2ccccc2Sc2ccc(C(=O)O)cc21 | 111 | 139 | 87 | ·
COc1ccc(OC)c(NC(=O)Cn2c(=O)n(Cc3ccco3)c(=O)c3cc(OC)c(OC)cc32)c1 | 105 | 91 | 89 | -6
CC(C)(C)OC(=O)N1CCC(c2c(C(=O)NCc3cccs3)cnn2-c2ccc(F)cc2F)CC1 | 110 | 110 | 90 | ·
CN1C(=O)/C(=C(/C#N)C(=O)NCc2ccc(Cl)cc2)c2ccccc21 | · | 90 | 83 | -7
CCOc1ccccc1NC(=O)COC(=O)CCN1C(=O)C2CC=CCC2C1=O (stereo unspecified) | · | 102 | 105 | -4
CCOC(=O)c1c(C)n(-c2ccc(C)cc2)c2ccc(OCC(O)Cn3cnc4ccccc43)cc12 (stereo unspecified) | 100 | · | · | -16
CC1(C(=O)NCc2ccc3c(c2)OCO3)CCN(C(=O)C2CCC2)CC1 | 104 | · | · | -26
O=C(CN1CCN(Cc2ccccc2)CC1)NN=C/C=C\c1ccco1 | 101 | 98 | 90 | -63
N#Cc1ccccc1Cn1c(=O)n(-c2cccc(C(F)(F)F)c2)c(=O)c2sccc21 | 107 | 104 | 89 | -10
COCCCNC(=O)CC1Oc2ccccc2NC1=O (stereo unspecified) | 106 | · | · | -21
COc1ccc(C2CC(=O)C3=C(C2)Nc2ccccc2NC3c2cc(Br)ccc2F)cc1OC (stereo unspecified) | 105 | · | · | -5
O=C(OCc1ccccc1)c1cc2ccccc2[nH]1 | · | 85 | 97 | -3
Cc1noc(C)c1COc1cccc(C(=O)N[C@@H](Cc2ccccc2)c2nc3ccccc3[nH]2)c1 | · | 96 | 92 | -20
Cc1nn(CC(=O)NC2CC2)c(=O)c2noc(C)c12 | 96 | · | · | -24
Cc1c(SC(F)F)cc(SC(F)F)cc1SC(F)F | · | 93 | 89 | -4
COc1ccc(S(=O)(=O)NC(N)=NCCc2ccc(Cl)cc2)cc1OC | 102 | 104 | 88 | -8
O=C(Nc1cc(C(F)(F)F)ccc1Br)c1ccccc1F | 104 | 108 | 103 | ·
CCc1ccc(N(C)S(=O)(=O)c2ccsc2C(=O)n2nc(C)cc2C)cc1 | 102 | · | · | 10
CCc1nc2ccc(C(=O)N3CCN(c4ccccc4F)CC3)cc2nc1CC | 88 | 127 | 85 | ·
O=C(c1ccc(O)cc1)N1N=CCC1(O)C(F)(F)F (stereo unspecified) | · | 94 | 90 | -5
Cc1cc(Cn2cnc3ccccc3c2=O)no1 | · | 102 | 90 | -13
CCCCOc1ccccc1C(=O)N(Cc1ccc(C)o1)C1CCS(=O)(=O)C1 (stereo unspecified) | 100 | 100 | 82 | 4

Further entries:
SMILES | GIV Gai3 FP | Sa growth 42C | Sa growth 42C second temp | HCMV NEC inh
O=C(NCCc1ccccc1)c1nc(-c2ccc(Cl)cc2)n2c1CCCCC2 | 100 | 95 | 70 | ·
CCOc1ccccc1C(=O)N1CCc2cc(OC)c(OC)cc2C1COc1ccc2c(C)cc(=O)oc2c1 (stereo unspecified) | 102 | 93 | 89 | 12
O=C(Cc1c(F)cccc1Cl)OCC(=O)c1ccc2c(c1)OCO2 | · | 119 | 95 | 12
CC12CCC(C(=O)N3CCc4ccccc43)(CC1=O)C2(C)C (stereo unspecified) | 103 | 101 | 96 | -15
COC(=O)c1c(NC(=O)c2nc(SC)ncc2Cl)sc2c1CCCC2 | 98 | 107 | 85 | -19
CCCCSc1nnc2c(n1)OC(c1ccc(Br)s1)N(C(C)=O)c1ccccc1-2 (stereo unspecified) | 107 | 101 | 73 | -66
C=CCC1(Nc2ccccc2)CCCCC1 | · | 96 | 85 | -13
CN1CCc2c(sc3c2CN(C(=O)Nc2cc(F)ccc2F)C(c2ccc(F)cc2)c2cccn2-3)C1 (stereo unspecified) | 109 | · | · | 11
O=S(=O)(c1cccc2nsnc12)N1CCC(n2cnc3cccnc32)CC1 | 96 | · | · | -121
O=C(CC(c1ccccc1)c1ccccc1)NCc1ccco1 | 103 | 97 | 106 | 13
CCn1c(=N)n(CC(O)c2cccs2)c2ccccc21 (stereo unspecified) | 108 | 100 | 95 | 0
O=C(Nc1ccncc1)c1ccc(C(=O)c2ccccc2)cc1 | · | 97 | 85 | -23

13 consecutive records out of the list so far, for reference:
SMILES | GIV Gai3 FP | Sa growth 42C | Sa growth 42C second temp | HCMV NEC inh
CCCCOc1ccccc1C(=O)N(Cc1ccc(C)o1)C1CCS(=O)(=O)C1 (stereo unspecified) | 100 | 100 | 82 | 4
O=C(NCCc1ccccc1)c1nc(-c2ccc(Cl)cc2)n2c1CCCCC2 | 100 | 95 | 70 | ·
CCOc1ccccc1C(=O)N1CCc2cc(OC)c(OC)cc2C1COc1ccc2c(C)cc(=O)oc2c1 (stereo unspecified) | 102 | 93 | 89 | 12
O=C(Cc1c(F)cccc1Cl)OCC(=O)c1ccc2c(c1)OCO2 | · | 119 | 95 | 12
CC12CCC(C(=O)N3CCc4ccccc43)(CC1=O)C2(C)C (stereo unspecified) | 103 | 101 | 96 | -15
COC(=O)c1c(NC(=O)c2nc(SC)ncc2Cl)sc2c1CCCC2 | 98 | 107 | 85 | -19
CCCCSc1nnc2c(n1)OC(c1ccc(Br)s1)N(C(C)=O)c1ccccc1-2 (stereo unspecified) | 107 | 101 | 73 | -66
C=CCC1(Nc2ccccc2)CCCCC1 | · | 96 | 85 | -13
CN1CCc2c(sc3c2CN(C(=O)Nc2cc(F)ccc2F)C(c2ccc(F)cc2)c2cccn2-3)C1 (stereo unspecified) | 109 | · | · | 11
O=S(=O)(c1cccc2nsnc12)N1CCC(n2cnc3cccnc32)CC1 | 96 | · | · | -121
O=C(CC(c1ccccc1)c1ccccc1)NCc1ccco1 | 103 | 97 | 106 | 13
CCn1c(=N)n(CC(O)c2cccs2)c2ccccc21 (stereo unspecified) | 108 | 100 | 95 | 0
O=C(Nc1ccncc1)c1ccc(C(=O)c2ccccc2)cc1 | · | 97 | 85 | -23

Other results
SMILES | GIV Gai3 FP | Sa growth 42C | Sa growth 42C second temp | HCMV NEC inh
CCOc1ccc(C(=O)C(C)Sc2nnnn2-c2ccc(OC)cc2)cc1 (stereo unspecified) | · | 105 | 98 | -6
CN(Cc1ccccc1)C(=O)CNc1cccc(C#N)c1 | · | 105 | 92 | 3
CC(NC(=O)c1ccco1)C(=O)NCc1ccccc1CN(C)C (stereo unspecified) | · | 82 | 93 | -16
CCCSC1=NC2(CCN(C(=O)NC3CCCCC3)CC2)N=C1c1ccc(C)cc1 | 107 | 91 | 85 | ·
CC(C(=O)NCc1ccc2c(c1)OCO2)n1ccc2cc(S(=O)(=O)N3CCCCCC3)ccc21 (stereo unspecified) | 103 | 107 | 102 | -10
COc1ccc(CCN2C(=O)CN=C2Nc2ccc(F)cc2)cc1OC | 97 | 101 | 71 | -17
Cc1cc2c(=O)n(Cc3ccco3)c(SCC(=O)c3cccs3)nc2s1 | 103 | 99 | 85 | -13
CC(C)N(C(=O)Cc1c(O)c2ccccc2[nH]c1=O)C(C)C | 99&107 | 105 | 85 | ·
COc1ccc(Br)cc1-c1nc(CSc2nc(C)cc(=O)[nH]2)c(C)o1 | 104 | · | · | -33
Cc1ccc(C(=O)Cn2cnc3c2c(=O)n(C)c(=O)n3C)cc1 | 97 | 75 | 90 | 11
COc1ccc(CCn2c(C)cc(C(=O)COC(=O)c3cccc(-n4cnnn4)c3)c2C)cc1 | · | 72 | 89 | -30
COc1cccc(-c2n[nH]c3c2C(c2ccccc2)NC3=O)c1 (stereo unspecified) | 108 | 87 | 87 | -22
Cc1cc(C)c(NC(=O)CSc2nc3c(c(-c4ccco4)c2C#N)CCCC3)c(C)c1 | 105 | 88 | 76 | 27
Cc1cc(-c2csc(N)n2)c(C)s1 | · | 104 | 78 | -7
CCC1CCCCN1C(=O)c1cc2cc(OC)ccc2oc1=O (stereo unspecified) | 99 | 109 | 104 | -16
Nc1ccc(OCC(=O)N2CCOCC2)cc1 | · | 105 | 85 | -6
Cc1cc(F)ccc1S(=O)(=O)Nc1ccc2c(c1)CCCN2C(=O)c1cccs1 | 102 | 88 | 57 | ·
COc1cccc(-n2c(SC3CCOC3=O)nc3ccccc3c2=O)c1 (stereo unspecified) | · | 100 | 92 | -15
CC(=O)Oc1c(Br)c(=O)[nH]c2ccccc12 | 90 | 92 | 83 | -34
Cc1cc(C(=O)NC2CCSc3ccccc32)no1 (stereo unspecified) | · | 99 | 96 | 6
CCCCC12CN3CCN(CC(C3)C1=N/N=C1\C3CN4CCN(C3)CC1(CCCC)C4)C2 | 100 | 77 | 79 | -13
O=S(=O)(c1cc(F)ccc1F)N1CCCC1c1cccc(F)c1 (stereo unspecified) | 97 | · | · | 1
